# TRPML1 inh: qHTS for Inhibitors of the Human Mucolipin Transient Receptor Potential 1 (TRPML1); Mucolipin-1 (Homo sapiens), Q9GZU1; TRPML1-inducible cells, Ca2+ dye fluorescence, FDSS; active compounds read low; inhibition of EC80 agonist-evoked calcium signal; activity change, negative = inhibition, % (concentration not given with the values); 390,000 compounds, 0.02% hits; AID 624415, 2012; in the data active means activity change below about -50%; inconclusive means about -30% to -50%; inactive means above about -30%;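 further: stimulus is agonist 54-4 at its EC80 concentration; on the % scale 0 is the no-effect control and ±100 the full control effect; the text of the record puts the active cut at -80%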
# Target sequence (Q9GZU1 whole entry, looked up): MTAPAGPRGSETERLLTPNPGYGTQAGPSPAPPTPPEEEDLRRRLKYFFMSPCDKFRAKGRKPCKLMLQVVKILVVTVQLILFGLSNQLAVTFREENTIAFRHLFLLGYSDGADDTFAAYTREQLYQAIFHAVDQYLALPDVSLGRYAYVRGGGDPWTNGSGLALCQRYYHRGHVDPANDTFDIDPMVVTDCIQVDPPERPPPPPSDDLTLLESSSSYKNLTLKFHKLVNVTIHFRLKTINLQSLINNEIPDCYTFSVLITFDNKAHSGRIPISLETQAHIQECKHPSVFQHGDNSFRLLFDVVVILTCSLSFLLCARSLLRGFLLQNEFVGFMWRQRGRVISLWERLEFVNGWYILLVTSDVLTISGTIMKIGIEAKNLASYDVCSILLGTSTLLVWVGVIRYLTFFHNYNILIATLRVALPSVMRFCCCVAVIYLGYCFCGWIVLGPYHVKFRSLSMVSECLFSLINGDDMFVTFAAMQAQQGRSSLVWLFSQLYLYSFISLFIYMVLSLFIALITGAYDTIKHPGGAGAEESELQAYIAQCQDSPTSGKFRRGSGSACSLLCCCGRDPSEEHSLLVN
#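 TRPML1-DL cells, Tet-induced overnight (~16 h, 37 °C) at 1,500 cells/well, were loaded with Ca8 no-wash dye plus quencher for 45-90 min at room temperature. Compounds were pinned during FDSS kinetic reading; agonist 54-4 at EC80 (4 uM final) then added.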
# PINK1 modulator: A Quantitative High throughput Screen to Identify Chemical Modulators of PINK1 Expression; AID 624263, 2012; PINK1 immunofluorescence, high-content cytometry, 24 h; 410,000 compounds, 0.2% hits; Potency, µM (titrated, usually from 76.6 µM), for the others: at the top dose activation (PINK1 increase), hits mostly activators; active = well fitted activation curve with a large enough effect; inconclusive = small, poorly fitted or top-dose-only effect; inactive = flat fitted curve, though single readings scatter; cell line not stated here;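 further: potency means the concentration at half of the fitted maximal effect; % of control where 0% means no effect; nearly all actives have a fitted effect of over 65% in size; a mitochondrial uncoupler was the plate control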
#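 PINK1 protein level read as immunofluorescence by microplate cytometer in a fixed, stained stable cell line after 24 h exposure to five compound concentrations, with CCCP as control.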
# TRPML1 ag: qHTS for Agonists of the Human Mucolipin Transient Receptor Potential 1 (TRPML1). TRPML1-expressing cells, Ca2+ dye fluorescence, FDSS; host cell line not named in the record; reference of the full effect not given here. activation, % (no concentration beside the values). 410,000 compounds, 0.12% hits; in the data active = activation above about 50%; inconclusive = about 30% to 50%; inactive = below about 30%; further: 0% is about no effect; the text of the record puts the active cut at 80%
#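 Tet-induced TRPML1-DL cells, 1,500 per well, cultured overnight, were loaded with a no-wash Ca2+ dye for 45–90 min. Calcium fluorescence was recorded on the FDSS for 110 s after compound addition, before the EC80 agonist (4 uM 54-4) was added.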
# D2 agonist: Beta-Arrestin HTS for Positive Allosteric Modulators of the Human D2 Dopamine Receptor: Agonists; D(2) dopamine receptor (Homo sapiens), P14416; DiscoveRx PathHunter D2 beta-arrestin, luminescence, 90 min; 100% = 57 uM dopamine signal; 360,000 compounds, 0.084% hits; activation, % (test concentration not listed); in the data active = activation above about 40%; inconclusive = about 15% to 40%; inactive = below about 15%; further: compound concentration not given in the record; the text of the record calls up to 30% inactive
# Target sequence (P14416 whole entry, looked up): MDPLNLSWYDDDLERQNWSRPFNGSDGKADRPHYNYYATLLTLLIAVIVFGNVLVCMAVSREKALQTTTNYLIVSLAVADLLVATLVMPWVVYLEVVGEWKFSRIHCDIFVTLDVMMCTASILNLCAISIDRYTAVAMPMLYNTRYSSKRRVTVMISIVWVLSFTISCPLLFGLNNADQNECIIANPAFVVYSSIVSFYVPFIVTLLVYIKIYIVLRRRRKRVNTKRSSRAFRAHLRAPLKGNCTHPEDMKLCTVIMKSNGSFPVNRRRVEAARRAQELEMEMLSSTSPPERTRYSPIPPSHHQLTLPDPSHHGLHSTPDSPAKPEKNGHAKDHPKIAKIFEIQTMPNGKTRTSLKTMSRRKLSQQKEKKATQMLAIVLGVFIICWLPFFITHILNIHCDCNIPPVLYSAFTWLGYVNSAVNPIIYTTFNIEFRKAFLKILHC
#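 Agonist mode: compounds alone added to overnight-plated D2 PathHunter cells for 90 min at 37 C, with 57 uM final dopamine (EC100) defining full response. Beta-arrestin recruitment detected by chemiluminescent reagent, read after 1 h at ambient temperature.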
# Six1-Eya2 inh: qHTS Assay for Inhibitors of the Six1/Eya2 Interaction; Homeobox protein SIX1 (Homo sapiens) + Protein phosphatase EYA2 (Homo sapiens), …; activity change, % (concentration not given with the values); 360,000 compounds, 0.56% hits; AID 651725, 2012; AlphaScreen GST-Six1/His-Eya2 binding, biochemical; active compounds read low; control for the full effect not named in the record; in the data active = activity change below about -65%; inconclusive = about -30% to -65%; inactive = above about -30%; further: on the % scale 0 is the no-effect control and ±100 the full control effect
#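 Homogeneous AlphaScreen proximity assay pairing GST-Six1 with His-tagged Eya2 (added as 5X mix: 250 nM and 500 nM) in 50 mM Tris pH 8.0, 300 mM NaCl, 1 mM TCEP. Glutathione donor and nickel acceptor beads; 1 h, 37 °C, dark.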
# D2 PAM: Beta-Arrestin HTS for Positive Allosteric Modulators of the Human D2 Dopamine Receptor: Potentiators; AID 624464, 2012; 360,000 compounds, 0.23% hits; potentiation, % (concentration not given with the values); DiscoveRx D2 beta-arrestin cells, luminescence, 90 min; 100% = 57 uM dopamine signal; active = potentiation of 50% or more; inconclusive = 30% to 50%; inactive = 30% or less;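 further: tested on top of an EC20 dose of dopamine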
#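 PathHunter beta-arrestin assay in DiscoveRx D2 cells. Compounds were added with an EC20 of dopamine (50 nM final) for 90 min at 37 deg C. Luminescence was read 1 h after detection reagent, with 57 uM dopamine as the EC100 control.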
# * marks the source's active call; other numbers are inactive results; ? = inconclusive; · = no result given; & = joins results of further samples; [ ] = remark or other dose.
SMILES,TRPML1 inh,PINK1 modulator,TRPML1 ag,D2 agonist,Six1-Eya2 inh,D2 PAM
CCN(CC)S(=O)(=O)c1ccc(OC)c(NC(=O)c2cc3c(=O)n4ccccc4nc3s2)c1,11,28%,0.0,1.7,-8,-13
COC(=O)c1cc(S(=O)(=O)NCc2ccccc2)cn1C,1,1.1%,0.1,-0.6,5,-3
Cc1ccc(C(=O)NCCC(=O)Nc2ccccc2C)cc1,-8,-0.1%,0.3,0.7,8,-11
Cc1ccccc1-c1nn2c(=O)cc(CN3CCN(C(=O)c4ccc(C(C)(C)C)cc4)CC3)nc2s1,-3,1.9%,-0.8,·,·,·
C/C=C/C=C/C(=O)OC(C)C(=O)Nc1cc([N+](=O)[O-])ccc1OC (stereo unspecified),19,0.6%,0.8,1.7,-11,10
O=C(NCCN1CCOCC1)c1ccc2c(c1)ncn2C1CCCCC1,0,-0.4%,4.4,-1.1,3,-5
C[C@]12c3[nH]c4ccc(Cl)cc4c3CCN1C(=O)[C@@H](CC(=O)NCCN1CCOCC1)C[C@@H]2C(=O)N1CCCCC1,16,0.0%,-0.4,0.1,1,·
CCS(=O)(=O)N1CCc2cc(C(=O)NCCc3ccc(OC)cc3)ccc21,21,0.9%,0.7,·,·,·
COc1c(C(=O)Nc2nccs2)ccc2ccccc12,·,-1.0%,·,-3.7,-23,1
O=c1[nH]c(=O)n(C2CCCO2)cc1F (stereo unspecified),-8,1.8%,0.4,6.2,-2,-1
Cc1cc(-c2nc3ncccc3o2)ccc1NC(=O)c1ccc(Br)cc1,-2,0.8%,1.6,·,·,·
O=C(Nc1ccc(S(=O)(=O)Nc2cnc3ccccc3n2)cc1)c1ccc(F)cc1,12,0.7%,1.8,0.4,-4,0
Cc1c([N+](=O)[O-])cnc(Sc2ccccc2)c1[N+](=O)[O-],-5,-1.7%,-0.3,-1.9,-3,-25
Cc1cc(C)c2c(N)c(C(=O)NN3CC(=O)N(c4cccc(Cl)c4)CC3=O)sc2n1,20,?,-0.2,-5.4,-10,-7
CCN1CCN(c2ccc(NC(=O)c3ccccc3F)cc2Cl)CC1,-8,0.0%,-0.2,-4.0,2,-39
CCn1cc(C(=O)NCCc2ccc(Cl)cc2)c(=O)c2cc(S(=O)(=O)N(C)C3CCCCC3)ccc21,19,0.9%,-0.1,·,·,·
CCCNC(=O)c1nn2c(C(F)(F)F)cc(-c3ccccc3)nc2c1Br,3,0.9%,-0.3,-2.8,-24,-2
O=C(NCc1ccco1)C(NS(=O)(=O)c1cccc2nsnc12)c1ccccc1 (stereo unspecified),9,-3.5%,0.7,-1.3,-1,7
CCCC(=O)NC(c1ccc(OC)c(OC)c1)c1cc(Cl)c2cccnc2c1O (stereo unspecified),-1,-1.2%&2.1%,1.6&1.3,-9.0,-72*,-25
Cc1ccc(/C=C/C(=O)N2CCc3ccccc3C2)cc1,10,2.5%,1.4,-2.7,0,-15
Cc1ccc(-c2nc3ccc(Cl)cn3c2Cc2cccc(Cl)c2)cc1,0,1.2%,2.1,-3.3,5,-10
O=C(NCCCNC(=O)c1ccco1)c1cccc(F)c1,18,0.8%,1.0,2.7,2,0
CCN(CC)C(=O)CC(c1ccc(N(C)C)cc1)c1c(O)cc(OC)cc1OC (stereo unspecified),1&4,1.4%,1.2&-0.2,-3.1,-18,-6
Cc1cc(C)c(NC(=O)C(C)N2CCCCCC2)c(C)c1 (stereo unspecified),-8,2.4%,-0.8,-2.5,6,-4
O=C1Nc2ccccc2NC(c2ccc3c(c2)OCO3)=C1N(Cc1ccc(F)cc1)C(=O)c1ccco1,·,1.2%,-0.1,·,-2,·
COCCCNC(=O)c1sc2nc(C)c(C(=O)Nc3ccc(C)cc3C)c(-c3ccccc3Cl)c2c1N,5,2.5%,-1.3,·,·,·
O=C(Oc1ccccc1)c1cccc(COC(=O)c2cnccn2)c1,12,6.0%[38.3 µM],4.4,1.9,7,-9
O=S(=O)(NC1CCCCC1Sc1ncccn1)c1ccc(Cl)cc1 (stereo unspecified),10,3.8%,-0.3,-0.3,4,-1
CCOc1cc(/C=N/NC(=O)c2ccncc2)ccc1OS(C)(=O)=O,-9,-1.0%,0.0,-2.2,-6,8
Cc1ccc(-n2c3nc(=O)[nH]c(=O)c-3cc3cc([N+](=O)[O-])ccc32)cc1,3,-3.9%,3.9,0.2,-6,9
O=C(CC1CCCC1)NNC(=O)c1ccc(F)cc1,-4,1.7%,-0.9,1.7,1,-5
Cc1cccc(C)c1NC(=O)Cn1nnc(S(=O)(=O)c2ccccc2)c1N,9,6.2%,0.6,·,·,·
COc1ccc(C2C(C#N)=C(N)OC3=C2C(=O)CC(C)(C)C3)cc1 (stereo unspecified),-19,2.9%,2.0,2.1,-2,1
C=CCSC1=N/C(=C\c2ccc(C(=O)O)cc2)C(=O)S1,13,4.2%,-0.3,-1.0,-2,-3
CCn1c(=O)c([N+](=O)[O-])c(N2CCN(Cc3ccc4c(c3)OCO4)CC2)c2ccccc21,42,-1.5%,4.5,-6.0,7,-13
Cc1cccc(C(=O)n2nc(-c3cccnc3)nc2NCc2ccccc2)c1,-8,-0.8%,2.5,·,·,·
COc1ccc([N+](=O)[O-])cc1N(CC(=O)N(C)C)S(C)(=O)=O,-10,1.6%,-0.5,-3.4,10,-4
CCCNC(=O)CSc1nc2ccccc2nc1Cc1ccc(Cl)cc1,17,0.8%,0.6,·,·,·
CC1(C(=O)NS(=O)(=O)c2cccc(F)c2)CCN1C(=O)c1ccccc1 (stereo unspecified),3,0.0%,0.0,-3.4,10,-3
Cc1ccccc1C(=O)c1cccn1CC(=O)NCc1ccccc1Cl,-3,9.1%,-0.3,3.5,1,-2
O=C(Nc1cccc(Cc2ccccc2)c1)Nc1cccc2[nH]c([C@@H]3O[C@H](CO)[C@@H](O)[C@H](O)[C@H]3O)nc12,·,0.9%,0.0,5.6,-16,-6
CC[C@@H](C)[C@@H](C(=O)N1CCN(C(=O)OC(C)(C)C)CC1)n1cc(CCC(=O)O)nn1,-9,0.5%,-0.8,-4.6,10,-15
CN(C)S(=O)(=O)c1ccc2c(c1)N(CC(=O)N1CCN(c3cccc(Cl)c3)CC1)CCS2,17,-0.9%,1.5,·,·,·
Cc1ccnc(NC(=O)Cn2c(=O)oc3ccccc32)c1,-15,1.0%,-0.5,-2.8,11,-3
S=C(NN=C(C1CC1)C1CC1)Nc1ccccc1,-19,1.1%,-0.3,2.5,3,1
COCC(=O)N(Cc1cc2cc(OC)ccc2[nH]c1=O)c1ccccc1,34,0.1%,-0.1,1.2,4,-17
CCCS(=O)(=O)NC(=O)C1(C)CCCN(C(=O)COc2ccc(Cl)cc2Cl)C1 (stereo unspecified),·,3.4%,-0.8,-7.2,3,-22
Cc1ccc(-n2nc(C(=O)N3CCN(C)CC3)c3c4ccccc4n(C)c3c2=O)cc1,-15,-1.2%,-0.2,0.6,2,-5
CCN1C(=O)C(CC(=O)NCCc2ccccc2)N(NC(=O)c2ccc(Br)cc2)C1=S (stereo unspecified),-13,0.0%,-0.5,-1.7,0,-19
Cc1ccc(Cl)cc1N1CCN(C(=O)c2ccc(NS(=O)(=O)c3c(C)noc3C)cc2)CC1,11,2.6%,1.9,2.3,0,-1
C#CC(C)OC(=O)Nc1cnccc1C(F)(F)F (stereo unspecified),9,-1.5%,-0.5,-1.3,-8,-2
CCOC(=O)c1ccc(NC(=S)NN)cc1,-13,1.7%,0.1,4.7,0,-4
COc1ccc(/C=N/NC(=O)c2[nH]c3ccc(Cl)cc3c2-c2ccccc2)c(C(=O)O)c1OC,-7,5.2%,-0.6,-3.6,-72*,-9
O=C(CCSCCc1ccccn1)Nc1ccccc1C(F)(F)F,-4,-0.1%,0.4,·,·,·
Cc1ccc(CN2C(=O)C3(c4ccccc42)N(c2ccc(C)c(Cl)c2)C(=O)CS3(=O)=O)cc1 (stereo unspecified),-4,0.4%,-0.4,·,·,·
COc1cc(NC(=O)Cn2c(=O)n(Cc3ccco3)c(=O)c3sc4ccccc4c32)cc(OC)c1,3,3.0%,-0.6,·,·,·
O=C(O)c1c2c(nc3ccccc13)/C(=C/c1c(F)cccc1F)CCC2,7,2.2%,0.6,-6.1,0,-7
Cc1ccc(CNC(=O)CCc2c(C)nn(-c3ccc(N4CCCCC4)nn3)c2C)cc1,-8,1.3%,-0.5,·,·,·
CCN1CCN(C(=O)C2CCN(S(=O)(=O)c3cc(Cl)ccc3Cl)CC2)CC1,1,0.0%,0.3,-0.4,0,-11
CCOC(=O)c1ccc(NC(=O)CCn2nnc3ccccc32)cc1,0,-0.5%,-1.0,-2.3,-1,-4

# (next part)
SMILES,TRPML1 inh,PINK1 modulator,TRPML1 ag,D2 agonist,Six1-Eya2 inh,D2 PAM
CN(c1ccccc1C(=O)N1CCN(c2ccccc2F)CC1)S(=O)(=O)c1ccccc1,-4,11%,0.2,-1.6,-1,-1
COc1ccccc1N1CCN(C(=O)C(Cc2ccccc2)NC(=O)C2CCCCC2)CC1 (stereo unspecified),4,-2.4%[38.3 µM],-1.0,-0.8,-3,-8
CC12COC3(C(=O)Nc4nccs4)CC1CCC32C (stereo unspecified),-14,3.4%,0.0,-1.8,1,4
CCCCC(=O)Nc1ccc(NC(=O)C2CC2)nc1,-10,1.5%,-0.5,-0.6,3,16
Cc1cc(OCC(=O)N(C(C)C)C(C)C)cc(C)c1Br,-6,8.4%,-0.3,-5.3,15,-6
O=C(Nc1ccccc1Oc1ccsc1C(=O)O)c1ccccc1F,-7,0.7%,1.1,4.7,-8,-4
NS(=O)(=O)c1ccc(NC(=O)CSc2nc3ccccc3nc2N2CCOCC2)cc1,1,-1.9%,0.2,-1.2,-2,-2
COC(=O)/C(C#N)=C/c1c(Oc2cc(C)cc(C)c2)nc2c(C)cccn2c1=O,10,21%,-0.9,-3.5,-10,-3
Cc1cccc(N2CCN(C(=O)CCc3nnc4n(CC(C)C)c(=O)c5ccccc5n34)CC2)c1C,32,-0.5%,3.0,·,·,·

# Whole records from above.
# O=C(Nc1ccccc1Oc1ccsc1C(=O)O)c1ccccc1F is listed as TRPML1 inh = -7; PINK1 modulator = 0.7%; TRPML1 ag = 1.1; D2 agonist = 4.7; Six1-Eya2 inh = -8; D2 PAM = -4
# Cc1cc(OCC(=O)N(C(C)C)C(C)C)cc(C)c1Br is listed as TRPML1 inh = -6; PINK1 modulator = 8.4%; TRPML1 ag = -0.3; D2 agonist = -5.3; Six1-Eya2 inh = 15; D2 PAM = -6

# Screens as filed in PubChem.
